Insulin prom inh: inhibitors of insulin promoter-driven GFP, primary screen, imaging, TRM-6 cells (human fetal islet line), eGFP reporter, cell count; reporter expression induced with tamoxifen; inhibition, % at 2 µM; actives 0.9% (n = 130,000);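 active means inhibition above the mean plus 3 SD, with well images judged a real hit on visual review, cut at about 60% in these data, passing the limit was not always enough; inconclusive means inhibition over the cutoff but images rejected on review; inactive means inhibition not above the cutoff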
RGS16-Gao: modulators of RGS16 binding to Galphao, primary screen, biochemical, human proteins, multiplexed bead flow cytometry; bead-based flow cytometry RGS16-Galphao binding, fluorescence; actives lie on both sides; actives 0.38% (n = 220,000); binding response (% of control), % at 10 µM;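 active means below 25% or above 175%, edge rows of some plates excepted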;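 further: Galphao activated by GDP with aluminum fluoride before binding; 100% = wells without compound and 0% = beads without RGS; some results beyond the cut were filed as inactive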
PKD1 kinase inh: inhibitors of human PKD1 kinase, biochemical, fluorescence polarization; inhibition, %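 (about 10 µM by stock and volumes)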; AID 797, 2007; actives 0.056% (n = 200,000); PKD1 kinase fluorescence polarization assay;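 active means inhibition of 50% or more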;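 further: controls were vehicle for no effect and a reference inhibitor for full effect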
Target sequence (Q15139 whole entry, looked up): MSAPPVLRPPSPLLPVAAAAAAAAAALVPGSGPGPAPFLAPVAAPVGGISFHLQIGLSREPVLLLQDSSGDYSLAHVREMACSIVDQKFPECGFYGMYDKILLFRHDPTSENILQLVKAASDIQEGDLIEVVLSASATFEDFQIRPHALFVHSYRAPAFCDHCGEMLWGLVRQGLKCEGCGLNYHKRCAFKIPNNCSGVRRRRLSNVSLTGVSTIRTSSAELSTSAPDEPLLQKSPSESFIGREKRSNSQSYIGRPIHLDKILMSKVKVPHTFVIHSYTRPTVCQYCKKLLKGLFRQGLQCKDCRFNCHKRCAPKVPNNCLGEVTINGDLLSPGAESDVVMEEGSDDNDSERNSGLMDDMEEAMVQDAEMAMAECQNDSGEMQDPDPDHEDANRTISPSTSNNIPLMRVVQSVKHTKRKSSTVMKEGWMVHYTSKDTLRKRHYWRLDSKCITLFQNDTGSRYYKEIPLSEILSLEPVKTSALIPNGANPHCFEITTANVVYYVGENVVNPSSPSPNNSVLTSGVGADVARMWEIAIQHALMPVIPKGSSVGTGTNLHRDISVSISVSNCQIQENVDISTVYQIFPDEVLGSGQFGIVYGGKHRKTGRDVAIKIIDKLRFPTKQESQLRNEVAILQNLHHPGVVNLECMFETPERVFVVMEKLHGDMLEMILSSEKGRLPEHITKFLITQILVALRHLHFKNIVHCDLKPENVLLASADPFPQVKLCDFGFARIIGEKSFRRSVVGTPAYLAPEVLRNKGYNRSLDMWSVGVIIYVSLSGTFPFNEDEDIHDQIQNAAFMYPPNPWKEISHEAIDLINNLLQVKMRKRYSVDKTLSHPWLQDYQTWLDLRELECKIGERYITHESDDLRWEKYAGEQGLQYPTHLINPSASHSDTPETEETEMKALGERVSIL
GALR2 ag: GALR2 receptor agonists, primary screen, cell-based; GALR2-expressing cells, agonist activation read-out; activation, %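 (tested at 5 µM)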; actives 0.48% (n = 140,000); AID 803, 2007;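 active means above mean plus 3 SD of all compounds, about 5% in these data, not always enough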;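 further: 0% = vehicle buffer wells and 100% = reference agonist at full effect; tested in CHO reporter cells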
HSV replic up: enhancers of HSV replication in host cells, fold increase, host cell viability; maximum fold increase; actives 0.005% (n = 220,000); HSV replication augmentation in cells;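 active means peak rise of 1.5-fold or more in the series; inconclusive means self-fluorescent or not available for retest; tested in PC3 cells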;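 further: first round at 10 µM; read as green reporter fluorescence; hits show the peak of a series up to 25 µM; 1 = signal of infected wells without compound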
Insulin prom inh cell count: further read-out of Insulin prom inh, marked with its call; normalized cell count, %; measured here: cell count, toxicity; reference of the scale not given here;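 cells exposed to compound for 48 h; stained nuclei by imaging scaled within each plate; lower means fewer cells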
HSV replic up primary fold: recorded beside HSV replic up, whose call it bears; fold increase; compound at 10 µM; measured here: primary screen fold increase 10 uM; tested in PC3 cells;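 GFP signal in the first replicate; 1 = infected wells without compound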
The depositor's hits bear a star; i = inactive; u = inconclusive; x = no result given. Rows are unselected. Share with any hit: about 1.2%.

smiles	Insulin prom inh	Insulin prom inh cell count	RGS16-Gao	PKD1 kinase inh	GALR2 ag	HSV replic up	HSV replic up primary fold
O=C(O)c1ccccc1SCC(=O)N1CCOCC1	36	111	101	-5	x	i	1
COc1ccc(C(CNC(=O)c2cc3ccccc3cc2OC)N2CCCC2)cc1 (stereo unspecified)	-49	83	232	1	-0.2	x	x
COc1ccc(OC)c(CNCCNC(=O)c2ccco2)c1	32	124	100	-1	-1.7	i	1.1
N/C(=N\OC(=O)c1cccc(Cl)c1)c1cccnc1	29	128	101	-10	-1.3	i	1
COc1ccc(CCNC(=O)COC(=O)C23CC4CC(CC(Br)(C4)C2)C3)cc1	-11	122	14*	-8	-0.8	i	0.98
CC(C)=C1C2CCC1C1C(=O)N(NC(=O)COc3ccc(C(C)(C)C)cc3)C(=O)C21 (stereo unspecified)	-21	95	103	-10	0.0	i	0.93
CCCCNC(=O)Cn1nc([N+](=O)[O-])c([N+](=O)[O-])c1C	42	77	112	-13	-0.7	i	0.96
CC(C)(CN1CCc2ccccc2C1)NS(=O)(=O)c1ccc(Cl)cc1	x	x	98	x	x	i	1.2
COc1ccccc1/C=N/NC(=O)CC(=O)NCc1ccccc1	x	x	106	1	x	i	1.1
Cc1cc(C)c(C#N)c(SCC(=O)CC(=O)OC(C)C)n1	12	119	99	-11	-1.4	i	0.99
O=C(Cn1c2[n+](c3ccc(C(F)(F)F)cc31)CCCCC2)Nc1ccc(Br)cc1	-142	178	99	-1	x	i	0.86
CC(=O)NC(=S)Nc1ccccc1C(=O)NC1CCCCC1	14	110	103	-3	0.1	i	0.86
Cc1nc2sc3c(c2c(=O)n1/N=C/c1ccco1)CCCC3	x	x	95	8	-1.2	i	0.76
CCOc1ccc(N2C(=O)CC(N(CCc3ccc(OC)c(OC)c3)C(=O)/C=C/C(=O)O)C2=O)cc1 (stereo unspecified)	x	x	102	x	x	i	1.1
O=C(CN1CCN(Cc2ccc(Cl)cc2)CC1)N/N=C/c1cccc(F)c1	x	x	96	x	x	i	0.9
COc1ccc(SC[C@H](Cc2ccccc2)N2CCN(C)CCC2=O)cc1	x	x	102	x	x	i	0.72
CCOc1ccc(OCCSc2nc3ccccc3[nH]2)cc1	71	89	97	-3	-2.8	i	0.72
COc1ccc(OC)c(S(=O)(=O)n2nc(-c3ccccc3)cc2N)c1	x	x	104	-10	-2.5	i	0.74
CCCCN(C)C(=S)Nc1ccc2nc3n(c(=O)c2c1)CCCCC3	x	x	97	-6	x	i	0.97
O=[N+]([O-])c1ccc(N2CCN(c3nc(-c4ccc(Cl)cc4)cs3)CC2)cc1	22	40	23	-3	-2.5	i	1
Cn1c(=O)c2c(ncn2CC(=O)N/N=C/c2ccc(Br)s2)n(C)c1=O	-13	84	102	6	-0.6	i	1.1
CCOC(=O)c1ccccc1NC(=O)c1ccc2c(=O)n3c(nc2c1)CCCCC3	x	x	x	-3	-0.8	i	0.77
Cc1cc2nc3c(=O)n(CCc4ccccc4)c(=O)[nH]c3nc2cc1N	x	x	103	x	x	u	x
O=C(C1=C[C@@H](C2CCCCC2)C[C@@H](OCCCCO)O1)N1CCN(Cc2ccccc2)CC1	x	x	91	5	x	i	1.1
O=C(O)CCCCCNC(=O)CCn1nnc2ccccc2c1=O	69	127	103	-6	-1.6	i	1.2
NS(=O)(=O)c1ccc(CNC(=O)CCC2CCCCC2)cc1	-7	100	104	-1	-1.2	i	0.99
CCC(C)C(NC(=O)c1ccccc1NC(=O)c1ccco1)C(=O)NC1CCCCC1 (stereo unspecified)	-85	83	101	-6	-0.2	u	x
COCCn1c(=S)[nH]c2cc(C(=O)NCC3CCCO3)ccc2c1=O (stereo unspecified)	x	x	96	-16	-3.0	i	0.87
CC(=O)Nc1sc2c(c1C(N)=O)CCC2	-381	55	111	-3	-1.5	i	1
C=CCn1c(Cc2ccc(OC)cc2)nnc1SCc1nc2ccccc2c(=O)[nH]1	x	x	98	-3	-0.7	i	0.73

A run of entries of the results above, as a working copy:
smiles	Insulin prom inh	Insulin prom inh cell count	RGS16-Gao	PKD1 kinase inh	GALR2 ag	HSV replic up	HSV replic up primary fold
CCCCN(C)C(=S)Nc1ccc2nc3n(c(=O)c2c1)CCCCC3	x	x	97	-6	x	i	0.97
O=[N+]([O-])c1ccc(N2CCN(c3nc(-c4ccc(Cl)cc4)cs3)CC2)cc1	22	40	23	-3	-2.5	i	1
Cn1c(=O)c2c(ncn2CC(=O)N/N=C/c2ccc(Br)s2)n(C)c1=O	-13	84	102	6	-0.6	i	1.1
CCOC(=O)c1ccccc1NC(=O)c1ccc2c(=O)n3c(nc2c1)CCCCC3	x	x	x	-3	-0.8	i	0.77
Cc1cc2nc3c(=O)n(CCc4ccccc4)c(=O)[nH]c3nc2cc1N	x	x	103	x	x	u	x
O=C(C1=C[C@@H](C2CCCCC2)C[C@@H](OCCCCO)O1)N1CCN(Cc2ccccc2)CC1	x	x	91	5	x	i	1.1
O=C(O)CCCCCNC(=O)CCn1nnc2ccccc2c1=O	69	127	103	-6	-1.6	i	1.2
NS(=O)(=O)c1ccc(CNC(=O)CCC2CCCCC2)cc1	-7	100	104	-1	-1.2	i	0.99
CCC(C)C(NC(=O)c1ccccc1NC(=O)c1ccco1)C(=O)NC1CCCCC1 (stereo unspecified)	-85	83	101	-6	-0.2	u	x
COCCn1c(=S)[nH]c2cc(C(=O)NCC3CCCO3)ccc2c1=O (stereo unspecified)	x	x	96	-16	-3.0	i	0.87
CC(=O)Nc1sc2c(c1C(N)=O)CCC2	-381	55	111	-3	-1.5	i	1
C=CCn1c(Cc2ccc(OC)cc2)nnc1SCc1nc2ccccc2c(=O)[nH]1	x	x	98	-3	-0.7	i	0.73

Next records follow:
smiles	Insulin prom inh	Insulin prom inh cell count	RGS16-Gao	PKD1 kinase inh	GALR2 ag	HSV replic up	HSV replic up primary fold
COc1ccccc1Nc1c([N+](=O)[O-])cncc1[N+](=O)[O-]	x	x	92	-1	x	i	1
Cc1cccc(Nc2nnc(SCC(=O)NC3CCCc4ccccc43)s2)c1 (stereo unspecified)	-53	87	108	-2	-1.9	i	1
CC(C)(C)c1nc(NC(=O)Nc2ccccc2)sc1Br	x	x	100	-1	x	i	1.1
COCCNC(=O)c1cn(C)c2ccc(S(=O)(=O)N(C)C3CCCCC3)cc2c1=O	x	x	100	-7	-1.5	i	1
COc1cc(OC)c(/C=N/NC(=O)COc2cccc3cccnc23)c(OC)c1	x	x	92	x	x	i	0.92
O=C(Nc1cccc(Oc2c(F)c(F)c(F)c(F)c2F)c1)N1C[C@@H]2C[C@@H](C1)c1cccc(=O)n1C2	x	x	99	1	-0.2	i	0.89
O=C(c1cc(F)ccc1F)C1CCCN(Cc2cccn2-c2ccccn2)C1 (stereo unspecified)	x	x	78	x	x	i	0.85
Cn1c(=O)c2c(nc(NCCO)n2C)n(C)c1=O	-180	112	104	-13	-0.7	i	0.87
Fc1ccc(-c2nnc(-c3ccc(Cl)cc3Cl)o2)cc1	x	x	104	-9	-3.1	i	0.74
CCc1nnc(NC(=O)CSc2nc3c(cc2C#N)CCCC3)s1	-48	131	154	-2	-2.8	i	0.66
CCc1c(C)nc(SCCOc2ccc(OC)cc2)[nH]c1=O	x	x	96	-11	-3.4	i	0.8
CN1CCN(c2ccc(NC(=O)c3ccc4c(c3)OCO4)cc2)CC1	x	x	104	-15	-3.5	i	0.85
CC(=O)OC1CCC2(C)C(=CCC3C2CCC2(C)C3CC3OC4(CCC(C)CN4)C(C)C32)C1 (stereo unspecified)	x	x	113	x	x	i	1
CCOC(=O)CC1CCCCN1Cc1cn(C)nc1-c1ccc2c(c1)OCCO2 (stereo unspecified)	x	x	104	-7	x	i	1.1
Cc1ccc(OC(=O)CCN2C(=O)c3ccccc3C2=O)cc1C	x	x	100	6	x	i	0.99
CC(=O)c1cnn(-c2cc(Oc3ccccc3C)ncn2)c1C	15	142	102	-6	0.1	i	0.91
O=C(NNC(=S)Nc1ccccc1)c1cc(-c2cccnc2)nc2ccccc12	57	79	197	-2	x	i	0.79
COc1ccc(Cn2c(C)c(C)c(C#N)c2NC(=O)Nc2ccccc2)cc1	-7	69	83	5	-2.6	x	x
FC(F)c1nnc2ccc(Cl)nn12	13	122	102	-2	x	i	0.89
CCOC(=O)c1c(C)[nH]c(C(=O)OCC(=O)NC2CCS(=O)(=O)C2)c1C (stereo unspecified)	0	146	96	1	-2.5	i	1
COC(=O)c1sc2ccccc2c1-n1cccc1C(=O)C(=O)Nc1ccc(OC)cc1	-12	61	98	-11	-1.9	i	0.89
Cc1oc(-c2ccccc2F)nc1CS(=O)(=O)CC(=O)N1CCN(Cc2ccccc2)CC1	x	x	104	3	-1.3	i	1
CC1CC(C)(C)NC(=S)N1CCCC(=O)N1CCN(c2ccccc2F)CC1 (stereo unspecified)	-16	97	114	-4	-1.1	i	1
CN1CCN(CC(=O)Nc2ccccc2Sc2ccccc2)CC1	x	x	103	-6	x	i	0.99
CCNC(=S)N1CCN(c2ccc([N+](=O)[O-])cc2)CC1	x	x	139	-10	-0.4	i	0.94
Cc1ccc(C(=O)NCC(=O)OCC(=O)c2ccc3c(c2)NC(=O)CO3)cc1C	36	96	96	-2	x	i	1
O=C(ON=C1CCN(S(=O)(=O)c2ccccc2)CC1)c1ccc(Cl)cc1	62	64	100	-1	-2.3	i	0.85
COc1ccc(-c2nnc(SCc3cccc(C#N)c3)o2)cc1	-281	148	114	-5	-1.2	i	0.92
Cc1ccc(S(=O)(=O)N/N=C/c2cccc3c2OCCO3)cc1	-3	111	153	2	-0.9	i	1.1
Cc1ccc(-c2cc(C(=O)Nc3ccccn3)c3ccccc3n2)o1	-5	82	101	-2	x	i	0.91

Next section:
smiles	Insulin prom inh	Insulin prom inh cell count	RGS16-Gao	PKD1 kinase inh	GALR2 ag	HSV replic up	HSV replic up primary fold
O=C(NCc1ccc2c(c1)OCO2)c1cc2ncc(Br)cn2n1	x	x	111	-10	-0.4	i	1.1
O=C(O)c1cc(-c2ccc(/C=N/NC(=S)Nc3ccccc3)o2)ccc1Cl	-9	120	102	-12	x	i	1.1
CCOC(=O)c1[nH]c(C)c(CN(CCc2ccccc2)C(=O)CCC(=O)O)c1C	9	115	100	4	-0.8	x	x
CCN1/C(=C2\SC(=S)N(Cc3ccccc3)C2=O)Sc2ccccc21	x	x	99	1	-0.8	i	1.1
O=C(CCC(=O)N1CCCC1)Nc1ccc([N+](=O)[O-])cc1	x	x	100	-7	x	i	0.79
CCOc1ccc(C(=O)NC(=S)Nc2ccccc2OC)cc1[N+](=O)[O-]	43	103	110	-6	-0.9	i	0.82
COCCn1c(SCC(=O)Nc2cccc(C)n2)nnc1-c1ccco1	x	x	104	3	x	i	0.88
COc1ccc(NC(=O)CCCN2C(=O)/C(=C\c3ccco3)SC2=S)cc1	37	133	95	4	-0.4	i	1
Cc1cccc(C(=O)Nc2ccc(O)cc2)c1	x	x	101	-7	-0.3	i	0.94
COc1ccc(Nc2nc(N3CCCC3)nc3ccccc23)c(OC)c1	35	36	110	6	-1.6	i	0.41
CC(=O)Nc1ccc(Nc2nc(-c3ccccc3)nc3ccccc23)cc1	39	105	103	-7	x	i	0.76
CCN(CC)C(=O)C1CCCN(Cc2ccccc2C(F)(F)F)C1 (stereo unspecified)	0	84	101	-12	-2.1	i	0.96
Cc1ccc(-c2cc(C(=O)N/N=C\c3cnn(C)c3C)c3ccccc3n2)cc1C	-30	102	103	0	0.9	i	0.88
O=S(=O)(c1cccc2cccnc12)N1CCN(c2ccc(F)cc2)CC1	x	x	100	6	x	i	0.84
Nc1ccc(S(=O)(=O)Nc2ccnn2-c2ccccc2)cc1	x	x	97	x	x	i	0.45
Cc1nn(CCC(=O)NNC(=S)Nc2ccc(F)cc2)c(C)c1[N+](=O)[O-]	-230	103	98	-12	-1.9	i	0.92
COC(=O)c1cccc(C23CC4(C2)[C@H](CN(Cc2ccc(C(F)(F)F)cc2)[C@@H]4c2ccccc2)C3c2ccc(C(F)(F)F)cc2)c1 (stereo partly specified)	x	x	100	x	x	i	0.89
CCN(CC)S(=O)(=O)c1ccc(C(=O)NCC(c2cccs2)N2CCOCC2)cc1 (stereo unspecified)	36	99	101	2	-3.4	i	0.89
